Source: PubChem
ALR H2O2 inh: blocks human ALR sulfhydryl oxidase activity | inhibition, % (test concentration not listed) | 290,000 compounds, 3.8% hits | AID 485317 | purified ALR, DTT oxidation, H2O2 HRP-luminol luminescence;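 active = mean and each replicate at 75% or more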;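 note: stock transfer was 7.5 nL into about 7.5 µL; 0% = neutral wells and 100% = wells with inactivated enzyme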
Target sequence (P55789 whole entry, looked up): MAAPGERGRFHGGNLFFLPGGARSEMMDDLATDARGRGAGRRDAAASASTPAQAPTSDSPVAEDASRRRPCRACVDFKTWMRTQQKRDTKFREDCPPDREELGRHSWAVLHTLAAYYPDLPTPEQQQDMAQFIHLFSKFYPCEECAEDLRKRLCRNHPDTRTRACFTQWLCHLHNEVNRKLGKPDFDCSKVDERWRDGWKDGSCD
Ecoli growth: E. coli growth inhibition. Escherichia coli growth, OD600, 23 h; hits give low values. OD600 absorbance (test concentration not listed). 330,000 compounds, 0.21% hits;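 active = OD600 absorbance below the run mean of sample wells minus 3.6 SD, in any replicate, cut at about 0.56 in these data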;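 note: stock transfer was 300 nL into about 60 µL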
rRNA inh HTS: selective bacterial rRNA inhibition in E. coli. E. coli WT GFP vs humanized-ribosome RFP mutants, fluorescence, 24 h; hits give low values; DMSO median 0, no signal -100. GFP signal change (wild-type ribosome), % (no concentration beside the values). 350,000 compounds, 1.6% hits;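 active = significant combined selectivity score with lowered wild-type GFP, culture density cut under 30%, mutant RFP and density less affected; inactive = any of these conditions unmet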; note: one replicate is shown; some compounds called inactive have numbers as strong as hits
HNF4A DNA FP: change in binding of human HNF4 alpha to DNA; AID 1224865; 360,000 compounds, 0.3% hits; P41235; HNF4a-FITC DNA binding, fluorescence polarization, 1 h; activity change, % at 10 µM; in the data active = activity change above about 30%, passing the limit was not always enough;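 note: controls were the assay level and a saturating level of protein; the project sought stronger binding though the title names inhibitors; some compounds called inactive have numbers as strong as hits; positive values seem to mean higher polarization but the record does not say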
B2AR ag: agonists of human beta-2 adrenergic receptor inducing internalization; P07550; Am2.2-beta2AR cells, FAP receptor internalization, flow cytometry; reference of the scale not given here; response, % (concentration not given with the values); 340,000 compounds, 0.43% hits; AID 504454;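 active = response above a set limit, near 3 SD of response in nonfluorescent compounds, cut at about 42% in these data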;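 note: stock transfer was 100 nL into about 11 µL; a reference agonist was the positive control; negative values mostly stem from fluorescent compounds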
Target sequence (P07550 whole entry, looked up): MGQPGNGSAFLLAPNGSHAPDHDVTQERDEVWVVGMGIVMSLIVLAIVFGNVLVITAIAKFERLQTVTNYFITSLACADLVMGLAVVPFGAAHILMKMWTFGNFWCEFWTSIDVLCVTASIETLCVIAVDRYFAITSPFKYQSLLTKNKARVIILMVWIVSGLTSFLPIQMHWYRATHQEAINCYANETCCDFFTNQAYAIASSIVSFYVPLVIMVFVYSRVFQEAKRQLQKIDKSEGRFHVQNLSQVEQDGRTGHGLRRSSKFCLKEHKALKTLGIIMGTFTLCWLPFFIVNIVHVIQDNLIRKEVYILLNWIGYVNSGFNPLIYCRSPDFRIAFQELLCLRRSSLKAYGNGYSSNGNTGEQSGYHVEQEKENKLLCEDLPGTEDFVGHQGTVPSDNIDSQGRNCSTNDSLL
UCH37 inh: blocks the human deubiquitinase UCH37. purified proteasome/UCH37, Ub-AMC cleavage fluorescence. 330,000 compounds, 0.33% hits. inhibition, % (concentration not given with the values);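 active = mean of two replicates above 20%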;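 note: 0% = compound-free wells with enzyme and 100% = wells lacking proteasome; stock transfer was 100 nL into about 20 µL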
Target sequence (Q9Y5K5 whole entry, looked up): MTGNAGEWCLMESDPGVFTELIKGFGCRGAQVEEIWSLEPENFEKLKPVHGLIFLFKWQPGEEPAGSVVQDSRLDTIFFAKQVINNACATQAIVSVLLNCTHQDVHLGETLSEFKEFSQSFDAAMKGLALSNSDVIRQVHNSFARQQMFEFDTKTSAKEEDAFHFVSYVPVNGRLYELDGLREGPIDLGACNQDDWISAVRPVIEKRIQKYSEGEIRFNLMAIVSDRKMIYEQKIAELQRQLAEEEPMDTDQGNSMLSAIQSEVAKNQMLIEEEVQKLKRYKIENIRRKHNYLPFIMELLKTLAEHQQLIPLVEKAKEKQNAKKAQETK
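Material: Human UCH37 enzyme supplied as purified proteasome complex | Schedule: 30 min compound-proteasome preincubation then 25 min substrate reaction, room temperature | Detection: AMC fluorescence from Ub-AMC cleavage, excitation 355 nm, emission 460 nm | Benchmarks: Wells without proteasome as full block, compound-free enzyme plus substrate as uninhibited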
FGF22 binding: binders of recombinant human FGF22 by thermal shift; Q9HCT0; SYPRO orange fluorescence; percent of sucrose octasulfate shift, DMSO zero; calls only at 9.99 µM; 340,000 compounds, 1.5% hits;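 active = melting point raised past a set limit in the mean and every replicate; three in four hits are not shown here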
rRNA inh HTS OD600: recorded beside rRNA inh HTS, whose call it bears; OD600 change, %; measured here: OD600 growth;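 optical density of the mix in the first replicate; 0 = DMSO median and -100 = no signal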
rRNA inh HTS RFP: also measured in rRNA inh HTS; calls as there; RFP signal change, %; measured here: RFP humanized mutant strains;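 first replicate; 0 = DMSO median and -100 = no signal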
An asterisk follows results filed as active; i = inactive; / = no result given; & = joins results of further samples. Only part of the results is shown, so the mix of outcomes need not match the whole.

SMILES	ALR H2O2 inh	Ecoli growth	rRNA inh HTS	rRNA inh HTS OD600	rRNA inh HTS RFP	HNF4A DNA FP	B2AR ag	UCH37 inh	FGF22 binding
Cc1nnc2sc(-c3ccco3)nn12	-2.3	0.694	12.2	4.8	-6.1	-0.7	-3.5	1.2	i
O=C(Nc1c2c(nn1-c1ccc(F)cc1)CS(=O)C2)c1ccc(S(=O)(=O)N2CCOCC2)cc1 (stereo not drawn)	1.0	0.722	7.4	3.5	-1.3	1.7	-1.8	2.6	i
CCOc1ccccc1NC(=O)C1CCCN1C(=O)OCc1ccccc1 (stereo not drawn)	1.9	0.689	/	/	/	-0.1	-7.9	0.8	/
Cc1ccccc1-n1c(=O)c(C#N)cc2c(=O)n3ccccc3nc21	-3.5	0.722	/	/	/	2.9	8.6	i	/
Cc1nnc(SCC(=O)N2CCN(c3cccc(Cl)c3)CC2)n1C1CC1	0.6	0.703	/	/	/	1.5	-3.7	1.8	i
COc1ccc(S(=O)(=O)N2CCOCC2)cc1NC(=O)COC(=O)c1ccc(C)s1	/	0.698	5.4	14.2	-0.1	3.7	-2.5	2.7	i
Cc1cc(C)n2c(SCC(=O)N(C)C3CCCCC3)nnc2n1	-5.0	0.656	2.8	2.7	-1.8	-0.6	-20.2	-7.4	i
CC(C)OC(=O)CSc1nnc(-c2ccccn2)n1N	-2.1	0.709	6.4	8.1	-0.9	1.4	-2.0	3.0	i
COc1ccccc1C(=Cc1ccc([N+](=O)[O-])cc1)C(=O)O	/	/	-0.4	11.8	-6.1	1.1	/	/	i
C[C@H]1CN([C@@H](C)CO)C(=O)CCCn2nncc2CO[C@@H]1CN(C)S(=O)(=O)c1ccc(-c2ccccc2)cc1	/	/	-7.1&-5.5	-6.4&-4.4	0.1&5.0	-0.5	/	/	i
CCOC(=O)C1=C(C)S/C(=C\N(C)C)C1=O	/	0.641	/	/	/	-3.0	3.6	-8.9	/
NC(=O)c1ccc(NC(=O)COC(=O)CNC(=O)c2sc3ccccc3c2Cl)cc1	-1.6	0.688	-11.8	-8.1	0.1	-2.1	7.8	3.3	i
COc1ccc(-c2oc3c(c2C#CCCCCO)C(OCCO)CC3)cc1 (stereo not drawn)	/	/	11.8	0.2	8.3	8.5	/	/	i
CCCCNC(=O)Nc1c(C)cc(SC#N)cc1C	96.7*	0.699	17.3	10.7	4.9	-2.9	-0.5	5.1	i
COc1cc(CNCCCCO)ccc1OCc1ccccc1F	-3.1	0.67	13.9	2.7	6.5	2.3	1.4	4.8	/
Cc1cc(C(=O)OCC(=O)Nc2cccc(S(=O)(=O)N(C)C)c2)c2ccccc2n1	-6.6	0.697	-18.0	-21.4	-2.6	4.1	2.5	1.0	i
CC1CCN(CCNC(=O)c2ccc(NC(=O)C3CCCO3)cc2)CC1 (stereo not drawn)	-3.6	0.681	/	/	/	0.9	13.5	0.8	/
CC1(C)CC(CCNS(=O)(=O)c2ccccc2)(c2ccccc2)CCO1 (stereo not drawn)	-3.7	0.723	-13.7	-3.6	2.2	3.5	3.7	-0.5	i
C=CCOC(=O)C(C#N)c1nc2ccccc2nc1N1CCN(Cc2ccccc2)CC1 (stereo not drawn)	-6.9	/	/	/	/	-0.6	-5.7	/	/
CSCCC(NC(=O)c1cc([N+](=O)[O-])cc([N+](=O)[O-])c1)c1nc2ccccc2[nH]1 (stereo not drawn)	-11.7	0.692	/	/	/	-0.4	0.4	-1.8	/
CCOC(=O)C1CCN(C(=O)CCCn2nc(C)c3c(C)n(-c4ccc(C)cc4)nc3c2=O)CC1	-1.6	0.649	-15.1	-17.3	-1.0	4.0	-1.4	-0.3	i
C=CCn1c(O)c(N=Nc2nc3ccccc3c(=O)n2-c2ccccc2)c2ccccc21	2.3	0.672	/	/	/	-3.0	1.7	3.1	/
CCc1ccc(-n2c(=O)c3c(C)c(C(=O)N(C)C)sc3n(CC(=O)NCc3ccco3)c2=O)cc1	-17.8	0.742	/	/	/	-0.6	3.4	5.1	/
COc1ccc(C2CC(O)(c3ccccc3)Oc3c(C)ccc(C)c32)cc1 (stereo not drawn)	4.9	/	-6.4	-16.5	-22.3	-0.2	11.4	1.0	i
COc1ccc(Cc2nnc(NC(=O)C3CC(=O)N(c4ccccc4C)C3)s2)cc1OC (stereo not drawn)	-28.0	0.674	0.4	-1.6	2.2	3.3	15.2	2.8	/
O=C(CSCc1cccc(CSCC(=O)Nc2ccc3ccccc3c2)n1)Nc1ccc2ccccc2c1	32.5	0.794	/	/	/	-1.9	1.3	-1.6	/
COc1ccc(S(=O)(=O)NCC(c2ccc(C)cc2)N2CCN(C)CC2)cc1 (stereo not drawn)	/	0.691	1.7	3.9	1.9	1.9	-1.4	0.9	i
O=C(O)CN1CCN(Cc2ccccc2Cl)C1=O	0.7	0.66	/	/	/	0.6	10.3	3.5	/
Cc1cc(C)n(CCNC(=O)CC2C(=O)NCCN2CC2CCCCC2)n1 (stereo not drawn)	/	0.689	3.6	0.8	0.6	0.0	-2.6	-7.5	i
Cc1ccc2ccc3cccnc3c2n1	/	/	7.4	2.2	5.3	-0.8	-4.5	/	i
Cc1[nH]nc(SCC(=O)N(C)c2ccccc2)c1[N+](=O)[O-]	-2.8	0.688	-5.3	2.0	-1.7	-0.8	-2.1	5.3	i
Cc1cc(C)c2c3c(cn2n1)c(=O)n(C)c(=O)n3C	-40.5	0.775	/	/	/	1.5	0.3	-1.8	/
CCSC1=C(C#N)C(c2ccccc2OC)CC(=O)N1 (stereo not drawn)	4.8	0.769	-5.9	-8.9	-3.6	0.7	3.3	7.2	i
C=CCn1c(C23CC4CC(CC(C4)C2)C3)n[nH]c1=S	/	0.653	-16.4	-16.1	-1.0	0.0	-8.8	2.6	i
Oc1c(C=Nc2ccccc2)sc2ccccc12	18.4	0.685	0.9	10.5	16.9	36.9*	-1.3	5.9	i
CC[C@@H](NC(=O)[C@H](Cc1ccccc1)NC(=O)CC[C@H]1O[C@@H](n2ccc(=O)[nH]c2=O)[C@H](O)[C@@H]1O)c1ccccc1	/	/	23.8	10.1	1.4	-3.2	/	/	i
CCOC(=O)C1CCN(S(=O)(=O)c2ccc(NC(C)=O)c(Cl)c2)CC1	/	0.673	13.8	7.3	3.0	3.6	8.9	2.1	i
COc1ccc(CNC(=O)COC(=O)c2ccc(C)c(S(=O)(=O)N3CCOCC3)c2)cc1	-3.4	0.7	7.8	4.2	-0.6	2.2	2.5	3.4	i
CCOC(=O)c1cnn(-c2nc(-c3ccccc3)nc3c2COC(C)(C)C3)c1N	-0.4	0.78	/	/	/	-6.9	-3.9	5.6	/
O=C(CCc1c[nH]c2ccccc12)NCc1ccncc1	2.4	0.659	8.6	11.5	-0.1	-3.0	1.9	3.6	i
O=C(CCCn1c(SCC(=O)c2ccc(F)cc2)nc2ccccc2c1=O)NCc1ccccc1	-2.7	0.765	/	/	/	-0.5	-6.0	-2.3	/
COCCCN1C(=O)c2ccc(C(=O)Nc3ccc(OC)cc3OC)cc2C1=O	-9.6	0.751	/	/	/	0.6	2.8	3.2	/
COc1cc(CC(=O)Nc2nc(C)cs2)cc(OC)c1OC	/	0.714	-19.1*	-3.1*	7.2*	4.4	-0.4	0.5	i
CCCCC[C@@H]1[C@@H]2C(=C(OCC)C[C@@H]3C(=O)N(c4ccccc4)C(=O)[C@H]23)[C@H](c2ccccc2)N1S(=O)(=O)c1ccc(C)cc1	/	/	1.3	13.2	-0.2	4.7	/	/	i
CC(=O)Oc1ccc2c(c1)Oc1cc(OC(C)=O)ccc1C21OC(=O)c2ccccc21	2.3	0.732	/	/	/	-93.6	-30.2	9.4	/
CCN(Cc1cc2ccccc2[nH]c1=O)S(=O)(=O)c1ccccc1	/	0.725	/	/	/	-0.7	-23.6	4.4	/
COC(CN(C)C(=O)C1CCC(CNS(=O)(=O)c2ccc(C)cc2)CC1)OC (stereo not drawn)	-0.6	0.673	12.3	12.2	3.3	5.1	-9.2	4.0	i
CNC(=S)Nc1ccc2nc(C)oc2c1	-7.1	0.717	2.3	9.8	1.3	-1.5	-1.2	-3.1	i
O=C(NN1C(=O)C2C3C=CC(C4CC34)C2C1=O)c1cccc(Cl)c1 (stereo not drawn)	25.5	0.642	/	/	/	-3.1	1.3	5.7	/
CSc1cccc(NS(=O)(=O)c2ccc3c(c2)CCN3C(C)=O)c1	-18.8	0.654	-8.4	-15.4	6.0	0.0	-12.1	6.3	i

The last 2 entries of the part above open the next one:
SMILES	ALR H2O2 inh	Ecoli growth	rRNA inh HTS	rRNA inh HTS OD600	rRNA inh HTS RFP	HNF4A DNA FP	B2AR ag	UCH37 inh	FGF22 binding
O=C(NN1C(=O)C2C3C=CC(C4CC34)C2C1=O)c1cccc(Cl)c1 (stereo not drawn)	25.5	0.642	/	/	/	-3.1	1.3	5.7	/
CSc1cccc(NS(=O)(=O)c2ccc3c(c2)CCN3C(C)=O)c1	-18.8	0.654	-8.4	-15.4	6.0	0.0	-12.1	6.3	i
CCC(C)NC(=O)CSc1nc2ccc(N3CCOCC3)cc2c(=O)n1CCc1ccccc1 (stereo not drawn)	-15.6	0.65	/	/	/	/	/	-25.5	/
CC1(C)CC(N2CCCC2)=CC(=[N+]2CCCCCC2)C1	-7.6	0.697	-20.6*	-11.3*	2.9*	-4.3	0.2	8.7	i
COc1cc(C(=O)c2nccc3cc(OC)c(OC)cc23)c([N+](=O)[O-])cc1OC	-76.8	0.729	4.2	-9.4	-2.2	-3.5	5.8	12.7	i
CCOc1ccc(-n2c(N)c(-c3nc4ccccc4n3C)c3nc4ccccc4nc32)cc1	-2.2	0.727	/	/	/	7.4	21.4	-75.2	/
CCOc1cc(N2CCOCC2)c(OCC)cc1NC(=O)COC(=O)CCOc1cc(C)ccc1C	-10.8	0.732	9.0	5.1	1.0	-6.1	-3.1	-1.5	i
CCSC1=N/C(=C\c2ccccc2)C(=O)N1c1ccc(OC)cc1	-2.8	0.692	6.2	11.5	-0.8	2.2	2.3	-12.9	i
COc1ccc(OC)c(-n2c(=S)[nH]c3c(sc(=S)n3-c3ccccc3C)c2=O)c1	-2.9	0.68	5.0	7.7	-0.8	-6.8	2.0	9.4	i
COc1ccc(/C=C(\NC(=O)c2ccccc2)C(=O)NCCN2CCOCC2)cc1OC	/	0.664	3.8	2.0	-1.1	-1.9	-9.4	5.7	i
CCn1cc(C(=O)N2CCN(c3ccccc3F)CC2)c(=O)c2ccc(C)nc21	-0.8	0.701	-7.2	-2.6	2.0	1.1	2.6	7.8	i
Cc1[nH]ccc(=O)c1OC1OC(CO)C(O)C(O)C1O (stereo not drawn)	8.3	0.697	10.5	1.6	-4.5	0.1	-6.4	2.9	i
Cc1nc(NC(=O)c2ccccc2)sc1-c1csc(NCc2ccco2)n1	/	0.694	/	/	/	9.8	10.2	-23.4	/
O=C(Nc1ccccc1)[C@@H]1[C@@H]2C(=O)N(c3ccc(F)cc3)C(=O)[C@@H]2[C@H]2C=CC=NN21	0.6	0.674	11.7	1.1	1.5	-0.5	-3.4	1.7	i
CC(C)C[C@H]1CN(CCCC[C@@H]2CNC(=O)C(=O)N2CCc2ccccc2)C(=O)C(=O)N1CCC1CCCCC1	/	/	-56.2	-77.4	-21.0	5.5	/	/	i
COc1ccccc1OCc1ccc(C(=O)OCC2CCCO2)o1 (stereo not drawn)	-6.6	0.676	/	/	/	0.6	8.0	-0.2	/
C=CCNc1nc(C(=O)OCC(=O)c2ccc(Cl)cc2)cs1	97.6*	0.654	6.8	4.0	1.0	-1.8	12.2	0.3	i
Cc1ccc(N2C(=O)NC(NC(=O)c3ccc(Cl)cc3)(C(F)(F)F)C2=O)cc1 (stereo not drawn)	3.5	0.671	/	/	/	2.0	-3.0	-0.3	/
